# GLA inh pH 4.5 = qHTS Assay for Inhibitors of Human alpha-Galactosidase at pH 4.5 | activity change, negative = inhibition, % at 105 µM | purified enzyme, 4-MU-alpha-Gal fluorescence, pH 4.5 | 230,000 tested, under 10 active; inconclusive = small, poorly fitted or top-dose-only inhibition, or a rising curve; inactive = flat fitted curve, though single readings scatter; no compound was filed as active;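 note: 0% = full activity with enzyme and -100% = basal without enzyme; dose as in the result columns while the protocol names 77 µM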
# Target sequence (P06280 whole entry, looked up): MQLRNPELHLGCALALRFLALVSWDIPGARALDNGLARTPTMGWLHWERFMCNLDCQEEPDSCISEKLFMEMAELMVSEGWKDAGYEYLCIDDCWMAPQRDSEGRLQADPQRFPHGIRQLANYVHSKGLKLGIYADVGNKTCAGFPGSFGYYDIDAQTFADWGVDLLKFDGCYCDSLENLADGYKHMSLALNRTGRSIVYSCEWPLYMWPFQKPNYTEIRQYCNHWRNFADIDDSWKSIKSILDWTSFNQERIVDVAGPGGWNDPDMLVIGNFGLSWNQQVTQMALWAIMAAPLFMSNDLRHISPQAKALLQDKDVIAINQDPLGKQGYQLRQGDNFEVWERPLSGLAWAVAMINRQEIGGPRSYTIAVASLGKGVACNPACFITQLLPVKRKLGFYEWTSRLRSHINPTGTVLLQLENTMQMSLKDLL
# Rango-impB inh = qHTS Assay for Inhibitors of Rango (Ran-regulated importin-beta cargo) - Importin beta complex formation. Importin subunit beta-1 (Homo sapiens), Q14974. Rango CFP/YFP FRET sensor + importin beta, 45 min. Potency, µM (titrated, usually from 92.2 µM), inactives show at the highest dose inhibition of complex formation. hit rate 0.031% among 340,000. AID 540263, 2011; active = rising FRET ratio curve, often small or poorly fitted; inconclusive = mostly compound fluorescence or quenching in the first reads; inactive = flat curves in all reads;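 note: potency is the fitted concentration of half-maximal effect; 0% = DMSO wells and 100% = buffer wells lacking importin beta; nearly all actives have a fitted effect of over 15% in size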
#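 FRET biosensor (snurportin 1 IBB flanked by EYFP and cerulean), 50 nM, with compound 5 min, then 0.125 microM importin beta in PBS, 1 mM DTT, 0.02% Tween-20, 0.1% BSA. CFP/YFP ratio read after 45 min at room temperature; pre-read flags interference.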
# miR-21 FLuc = qHTS Assay for Modulators of miRNAs and/orActivators of miR-21; HeLa miR-21 FLuc reporter, luciferase, 48 h; Potency, µM (highest dose often 38.3 µM), for inactives: at the highest dose reporter change, positive = more light; 340,000 tested, under 10 active; AID 2288, 2010; active = well fitted rising curve with a large enough effect; inconclusive = small, poorly fitted or top-dose-only effect; inactive = no such curve, though single readings can be large or run the other way;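 note: % of control where 0% means no effect; miR-21 action dims this reporter so a rising signal means less miR-21 action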
#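 HeLa cells endogenously expressing miR-21, stably carrying CMV-driven firefly luciferase with a downstream miR-21 binding site, 2000 cells/well. Titrations up to approximately 40 uM, 48 hours; luciferase luminescence read.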
# Rango dissoc inh = qHTS Assay for Inhibitors of RanGTP induced Rango (Ran-regulated importin-beta cargo) - Importin beta complex dissociation; Biochemical FRET Rango-importin beta, RanGTP-induced dissociation; AID 540253, 2011; Potency, µM (series often up to 46.1 µM), for the others: at the top dose activity change, negative = inhibition; hit rate 0.071% among 340,000; active means falling FRET ratio curve, often poorly fitted, with flat reads before Ran was added; inconclusive means other falling curves, or compound fluorescence or quenching; inactive means flat or rising ratio curve;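 note: potency is the fitted concentration of half-maximal effect; % of control where 0% means no effect; nearly all actives have a fitted effect of over 45% in size; -100% = wells without RanGTP and RCC1; the record marks most hits as doubtful in a second field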
#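 Two FRET readings bracket the reaction: one 5 min after compound meets Rango–importin beta, another 45 min after RanGTP-RCC1 (0.6 uM Ran, 0.2 uM RCC1, 2 mM GTP) is added. Only the second defines inhibition.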
# * = called active by the depositor; ? = inconclusive; . = not tested or not shown; & = joins results of further samples; [ ] = dose if it differs, or a comment. Not all compounds are listed, so the mix of outcomes need not match the whole.
# A first look:
SMILES,GLA inh pH 4.5,Rango-impB inh,miR-21 FLuc,Rango dissoc inh
Cn1ncc(Cl)c1C(=O)NCc1ccco1,2,6.5%,1%,1%
COc1cccc(Oc2ccc(C(F)(F)F)cc2NC(=O)c2cccc(F)c2)c1,0,5.4%,-6%,0%

# Results, previewed entries included:
SMILES,GLA inh pH 4.5,Rango-impB inh,miR-21 FLuc,Rango dissoc inh
Cn1ncc(Cl)c1C(=O)NCc1ccco1,2,6.5%,1%,1%
COc1cccc(Oc2ccc(C(F)(F)F)cc2NC(=O)c2cccc(F)c2)c1,0,5.4%,-6%,0%
Cc1[nH]c2ccccc2c1C(=O)C(=O)N1CCN(c2cccc(Cl)c2)CC1,.,-0.1%,18%,-9%
O=[N+]([O-])c1cccc(/C=N\N=C2c3ccccc3-c3ccccc32)c1O,-5,-0.4%,-1%,6%
O=C(NNC(=O)C12CC3CC(CC(C3)C1)C2)c1ccncc1,.,-0.4%,-7%,1%
CC(=O)SCC(C)C(=O)NCc1ccccc1 (configuration not stated),17,3.5%,0%,6%
CCN(CC)C(=O)c1sc(NC(=O)c2ccc(C)c([N+](=O)[O-])c2)c(C#N)c1C,-4,4.2%,-14%,1%
COc1ccc(OC)c(C2/C(=C(/O)c3cnn(-c4ccccc4)c3C)C(=O)C(=O)N2CCN(C)C)c1 (configuration not stated),3,-0.1%,21%,1%
Cc1noc(C)c1S(=O)(=O)N1CCC(C(=O)Nc2ccc(Br)cc2)CC1,.,-0.9%,-1%&-1%,-3%
CC(C)(C)NC(=O)C[C@H]1C[C@H](C(=O)N2CCCCC2)[C@@]2(CCc3ccccc3)c3[nH]c4ccc(Cl)cc4c3CCN2C1=O,.,0.5%,.,-10%
CCOC(=O)C1(Cc2ccccc2)CCN(C2Cc3ccccc3C2)CC1,-9,1.6%,-1%,-3%
OCCN1CCN(C(=S)Nc2ccc(SC(F)F)cc2)CC1,3,-2.3%,-7%,3%
N#Cc1ccc(Oc2cccc3cccnc23)c([N+](=O)[O-])c1,.,?,-15%,-21%
N=c1c(S(=O)(=O)c2ccc(Cl)cc2)cc2c(=O)n3ccccc3nc2n1CC1CCCO1 (configuration not stated),.,-1.3%,2%,?
CCc1cc2c(N[C@@H](Cc3ccccc3)C(=O)O)ncnc2s1,.,-0.3%,-2%,13%
O=C(c1ccoc1)N1CCCC(N2CCN(c3cccc(C(F)(F)F)c3)CC2)C1 (configuration not stated),.,0.3%,11%,-9%
NC(=O)C1CC(=O)N(c2ccc(OCc3ccc([N+](=O)[O-])cc3)cc2)C1 (configuration not stated),.,2.2%,-47%,7%
CCn1nnnc1SCC(=O)c1ccc(C)cc1C,-4,-0.1%,-26%,34%
O=C(COC(=O)c1ccc(S(=O)(=O)N2CCCC2)cc1)Nc1ccc(Cl)cc1,.,2.3%,.,-7%
Cc1nnc2sc(SCC(=O)Nc3ccc(Br)cc3)nn2c1=O,12,1.3%,-8%,13%
Cc1ccc(C2CC(=O)Oc3cc(C)cc(C)c32)cc1 (configuration not stated),.,-0.7%,.,5%
COc1ccc(-c2cc(=O)c3c(O)c(OC)c(OC)c(OC)c3o2)cc1,0,-0.4%,.,-3%
O=C(O)CCC(=O)Nc1cccc(-c2nc3ccccc3o2)c1,.,-3.8%,2%,14%
CCCn1nc(NS(=O)(=O)c2cccc3nonc23)c2cc3cc(C)ccc3nc21,.,4.0%,-12%,7%
Cc1ccc(S(=O)(=O)/N=C2/C=C(Sc3ncn[nH]3)C(=O)c3ccccc32)c(C)c1,2,.,?,.
CC(=O)Nc1ccc(N2C(=O)CSC2c2ccccc2[N+](=O)[O-])cc1 (configuration not stated),-5[21.1 µM],-1.4%,-1%,-23%
CC12CCC3C(=CCc4cc(O)ccc43)C1CC(=NO)C2O (configuration not stated),.,-2.1%,.,-16%
CC1CCN(CC(=O)NCc2ccccc2)CC1,2,-1.1%,-5%,10%
Cc1ccc(NC(=O)c2cc(S(=O)(=O)N3CCc4ccccc43)cn2C)cc1,.,4.2%,-1%,-11%
O=C(COc1ccc([N+](=O)[O-])cc1)NNC(=O)Nc1ccc([N+](=O)[O-])cc1,.,0.8%,-2%,-14%
CCOc1ccc(Cl)cc1CNc1nnnn1CC,.,-1.4%,-4%,-6%
CC(C)C(C)NC(=O)COc1nc2ccccc2nc1N(C)C1CCCCC1 (configuration not stated),.,-3.0%,-2%,5%
CCCC[C@@H]1CN=C(N)N1CCCC,.,0.7%,.,-13%
Cc1ccc(C(=O)COc2cc(O)c3c(=O)cc(-c4ccccc4)oc3c2)cc1,.,5.0%,1%,20%
COC(=O)c1cccc(C23CC4(C2)[C@H](CN(Cc2ccc(-c5ccccc5)cc2)[C@@H]4c2ccccc2)C3c2ccc(C(F)(F)F)cc2)c1 (some centres not stated),0&0,?,0%,-11%
COc1cccc(C(=O)NN/C(C)=C/C(=O)C(F)(F)C(F)(F)C(F)(F)F)c1,-2,0.7%,-31%,0%
CCCN(CCC)C(=S)Nc1cc(C(=O)OC)ccc1C(=O)OC,3,-1.7%,-16%,-4%
Cc1ccc2cc3c(=O)n(C)cc(C=O)c3nc2c1,.,?,.,0%
COc1ccccc1C(=O)NC(=O)COC(=O)c1ncc(Cl)c(Cl)c1Cl,.,-0.3%,.,-4%
CC(=O)Nc1ccc(S(=O)(=O)NNC(=O)C(=O)NNc2ccccn2)cc1,-6,-0.5%,0%,21%
COC(=O)/C(=N/Nc1ccccc1C)N1CCCc2ccccc21,4,0.7%,-11%,-6%
CSCCC(=O)Nc1ccc(C(C)=O)cc1,-7,1.9%,-37%,1%
[N-]=C=C1C(=O)NC(=O)C([n+]2ccc(-c3ccncc3)cc2)C1c1ccccc1C(F)(F)F (configuration not stated),-4,?,-7%,-22%
O=C(CCN1C(=O)/C(=C\c2cccs2)SC1=S)Nc1ccccn1,-4,4.9%,0%,-8%
O=C(C1CC1)N1CCC(c2nc(-c3ccc(S(=O)(=O)NCC4CCCO4)cc3)no2)CC1 (configuration not stated),-4,-4.0%,14%,-7%
COc1ccc(S(=O)(=O)N2CCC(N3CCCCC3)CC2)cc1,-4,0.4%,-1%,17%
S=C(NC1CCCCC1)N1CCn2cccc2C1c1ccncc1 (configuration not stated),1,-0.5%,-5%,-2%
O=c1c(O)c(-c2ccccc2)oc2cc(O)cc(O)c12,-3,-0.8%,.,-9%
CC(C)Nc1nnc(SCC(=O)Nc2ccc3c(c2)C(=O)c2ccccc2C3=O)s1,-28,-1.8%,-24%,-10%
COc1ccc(C)cc1NC(=O)CCNC(=O)Cn1cnc2ccccc2c1=O,.,-0.3%,6%,3%

# (next part)
SMILES,GLA inh pH 4.5,Rango-impB inh,miR-21 FLuc,Rango dissoc inh
O=C(COC(=O)/C=C/c1cccs1)Nc1nc(-c2ccccc2)cs1,2,4.5%,-26%,-1%
COc1cc(NC(=O)COc2cc(O)c3c(c2)OC(C)(C)CC3=O)cc(OC)c1,.,-0.8%,6%,18%
Nc1nnc(C(c2ccccc2)c2ccccc2)s1,2,0.1%,-4%,-10%
O=C(CSc1n[nH]c(-c2cccs2)n1)N1CCCC1,.,2.8%,.,15%
O=C(CCCN1C(=O)c2cccc3cccc(c23)C1=O)N1CCN(c2ncccn2)CC1,9,0.2%,-2%,0%
Nn1c(SCC(=O)N2CCCc3ccccc32)nnc1-c1ccc(Cl)cc1,8,0.6%,-5%,-10%
CCOC(=O)c1ccc(NS(=O)(=O)c2ccc3c(c2)NC(=O)CCS3)cc1,.,0.4%,3%,6%
COc1ccc([C@H]2CC(=O)C=C(c3ccc(OC(F)(F)F)cc3)C2)cc1,.,-0.7%,.,-11%
CC(C)C(=O)Nc1cccc(C(=O)N2CCCCC2C)c1 (configuration not stated),5,-1.5%,0%,0%
NC(=O)C(Cc1ccccc1)NS(=O)(=O)c1ccc(N2CCCC2=O)cc1 (configuration not stated),3,2.3%,2%,-24%
COc1ccccc1C(=O)C1CCCN(C(=O)C2CCCC2)C1 (configuration not stated),-9,0.0%,2%,3%
O=C(CNC(=O)c1cccc(F)c1)N/N=C/c1cccc([N+](=O)[O-])c1,-4,-0.2%,-3%,9%
Oc1cccc2ccc(/C=C/c3c(F)cccc3Cl)nc12,0,-0.9%,-29%,34%
CC(/C=N/Nc1nc2ccccc2[nH]1)=C\c1ccccc1,-2,4.1%,-31%,-6%
COc1ccc(CCNS(=O)(=O)c2cccc([N+](=O)[O-])c2)cc1OC,.,2.7%,-5%,5%
COc1cccc(-c2nc(CS(=O)(=O)CC(=O)NCc3ccc4c(c3)OCO4)c(C)o2)c1,.,0.0%,-3%,-3%
CCCCCNC(=O)c1ccc2c(=O)[nH]c3c(C(=O)NCC4CCCO4)sc(=S)n3c2c1 (configuration not stated),-14,0.7%,-5%,25%
NC(=S)NN=C(Cc1ccccc1)Cc1ccccc1,2,-6.4%,?,2%
N#CCN1CCC/C1=C\[N+](=O)[O-],-2,-1.8%,-1%,-1%
CCOC(=O)C1CCN(C(=O)c2ccc(C)o2)CC1,.,0.8%,.,1%

# Nine compounds from above, ordered by count of non-hydrogen atoms, descending.
SMILES,GLA inh pH 4.5,Rango-impB inh,miR-21 FLuc,Rango dissoc inh
COc1cccc(-c2nc(CS(=O)(=O)CC(=O)NCc3ccc4c(c3)OCO4)c(C)o2)c1,.,0.0%,-3%,-3%
CCOC(=O)c1ccc(NS(=O)(=O)c2ccc3c(c2)NC(=O)CCS3)cc1,.,0.4%,3%,6%
COc1ccc([C@H]2CC(=O)C=C(c3ccc(OC(F)(F)F)cc3)C2)cc1,.,-0.7%,.,-11%
O=C(CNC(=O)c1cccc(F)c1)N/N=C/c1cccc([N+](=O)[O-])c1,-4,-0.2%,-3%,9%
COc1ccccc1C(=O)C1CCCN(C(=O)C2CCCC2)C1 (configuration not stated),-9,0.0%,2%,3%
CC(C)C(=O)Nc1cccc(C(=O)N2CCCCC2C)c1 (configuration not stated),5,-1.5%,0%,0%
NC(=S)NN=C(Cc1ccccc1)Cc1ccccc1,2,-6.4%,?,2%
CCOC(=O)C1CCN(C(=O)c2ccc(C)o2)CC1,.,0.8%,.,1%
N#CCN1CCC/C1=C\[N+](=O)[O-],-2,-1.8%,-1%,-1%

# Next part
SMILES,GLA inh pH 4.5,Rango-impB inh,miR-21 FLuc,Rango dissoc inh
COCc1cc(CN2CCCC2)c(O)c2ncccc12,3,-1.5%,26%,-15%
Cc1cc(OCC(=O)NC2CC(C)(C)NC(C)(C)C2)c(C)cc1Br,.,-0.1%,-15%,1%
COC(=O)c1ccccc1NC(=S)NC(NC(=O)COc1ccccc1)C(Cl)(Cl)Cl (configuration not stated),-3,0.8%,-5%,13%
COc1cc2c(=O)n(CCC(=O)NCC3CCCO3)c(=O)n(CC(=O)Nc3ccc(C)cc3)c2cc1OC (configuration not stated),.,-2.4%,-1%&-6%,16%
O=C(CSc1ccc2ccccc2n1)c1ccc2c(c1)OCO2,9,?,-57%,-5%
Cc1cc(C)n(C(=O)c2cccc(S(=O)(=O)N3CCOCC3)c2)n1,4,4.2%,-4%,-18%
Cc1cccc(N2C(=O)CC(Sc3nccc(C)n3)C2=O)c1 (configuration not stated),.,-2.8%,-4%,-4%
CCOC(=O)N1CC(=O)Nc2ccc(Br)cc2C1c1ccccc1 (configuration not stated),-9,-0.2%,-1%,-13%
O=[N+]([O-])c1ccccc1C=NNC(=S)NN=Cc1ccccc1[N+](=O)[O-],.,-0.2%,.,-4%
COCCN(C(=O)COC(=O)c1nc(Cl)ccc1Cl)c1c(N)n(Cc2ccccc2)c(=O)[nH]c1=O,.,?,.,-4%
Cc1cc(C)cc(NC(=O)CN(C)S(=O)(=O)c2cnc[nH]2)c1,1,-1.3%,0%,23%

# Assay outcomes: PubChem, National Center for Advancing Translational Sciences (NCATS)
